# ATG4B inhibitor: inhibitors of human ATG4B cysteine protease; Q9Y4P1; ATG4B cleavage of LC3-PLA2, NBD-HPC fluorescence, 1 h; inhibition, % at 8.33 µM; 0.51% of 340,000 active; AID 504462; in the data active means inhibition above about 40%
# NR3A LBD binder: NR3A (human) ligand-binding domain modulation; Tm shift relative to glycine control, % at 25 µM; AID 1259313; 2.5% of 340,000 active; NR3A LBD differential scanning fluorimetry, Tm shift; 0% = protein alone, 100% = glycine-bound protein;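 active means melting temperature shift of at least 10% of the positive control shift, at one fixed dose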
# PfGluPho inh: PfG6PD (Plasmodium falciparum) enzyme inhibition; PfGluPho enzyme, NADPH resazurin-diaphorase fluorescence; inhibition, % at 20 µM; 0.78% of 350,000 active; AID 504690;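 active means inhibition reaching at least a set limit at 20 µM in the primary screen, cut at about 59% in these data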;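 further: 0% = DMSO wells with substrate and 100% = DMSO wells lacking glucose-6-phosphate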
# MPTP block: inhibitors of mitochondrial permeability transition pore | isolated mouse mitochondria, Ca2+ swelling absorbance, 30 min | inhibition, % at 10 µM | 1.4% of 360,000 active | AID 602449;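 active means inhibition of 50% or more, scaled per plate between neutral and stimulator controls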;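 further: 0% = DMSO wells given calcium and 100% = 1 mM EGTA wells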
# HKDC1 inhibitor: blocks human hexokinase HKDC1 activity; Q2TB90; recombinant HKDC1, G6PDH/diaphorase resazurin coupled fluorescence; inhibition, % at 20 µM; 0.16% of 340,000 active; AID 493160;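 active means inhibition above about 35% when tested at 20 µM, limit read from the data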;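 further: plate controls were DMSO wells with enzyme for no effect and DMSO wells lacking enzyme for full effect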
# Target sequence (Q2TB90 whole entry, looked up): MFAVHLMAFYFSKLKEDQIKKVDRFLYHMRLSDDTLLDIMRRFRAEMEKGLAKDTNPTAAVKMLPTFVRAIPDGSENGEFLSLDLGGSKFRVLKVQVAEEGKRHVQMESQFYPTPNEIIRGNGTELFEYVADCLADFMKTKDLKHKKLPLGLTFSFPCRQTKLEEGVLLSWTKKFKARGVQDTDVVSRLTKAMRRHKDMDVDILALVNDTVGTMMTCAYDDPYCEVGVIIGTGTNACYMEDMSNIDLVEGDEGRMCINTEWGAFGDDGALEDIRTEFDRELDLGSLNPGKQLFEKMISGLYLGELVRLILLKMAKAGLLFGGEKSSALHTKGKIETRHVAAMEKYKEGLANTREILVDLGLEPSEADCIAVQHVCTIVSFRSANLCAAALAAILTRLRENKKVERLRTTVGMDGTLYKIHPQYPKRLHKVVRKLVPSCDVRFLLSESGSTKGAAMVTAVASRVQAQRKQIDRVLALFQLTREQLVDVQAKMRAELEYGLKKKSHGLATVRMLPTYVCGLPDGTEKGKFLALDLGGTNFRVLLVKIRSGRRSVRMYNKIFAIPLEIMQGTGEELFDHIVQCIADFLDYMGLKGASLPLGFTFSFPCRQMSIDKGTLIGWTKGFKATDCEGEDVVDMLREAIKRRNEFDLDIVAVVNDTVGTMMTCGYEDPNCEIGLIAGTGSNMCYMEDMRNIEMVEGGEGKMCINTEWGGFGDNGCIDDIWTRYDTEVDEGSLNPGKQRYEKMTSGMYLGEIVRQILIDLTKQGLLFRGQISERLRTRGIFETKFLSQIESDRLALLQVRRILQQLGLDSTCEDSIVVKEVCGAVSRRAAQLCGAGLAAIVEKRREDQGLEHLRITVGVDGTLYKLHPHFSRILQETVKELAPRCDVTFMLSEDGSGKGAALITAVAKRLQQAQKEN
#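 Assay system – recombinant HKDC1 (HK5) hexokinase enzyme, produced in-house · Input – HKDC1 at 5 µg/mL · Reagent – glucose plus 1 mM ATP as hexokinase substrates · Timing – 90 min reaction incubation at room temperature, dark · Measured by – G6PDH/diaphorase-coupled fluorescence, 1 mM NADP, 100 µM resazurin, 525/613 nm · Benchmarks – DMSO-enzyme wells negative, buffer-substituted wells positive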
# * hit, by the source's call; x = not tested or not shown. Some of the compounds tested. The share of hits here may be higher or lower than overall.
item	ATG4B inhibitor	NR3A LBD binder	PfGluPho inh	MPTP block	HKDC1 inhibitor	molecule
1	18.4	4.5	9.9	0.1	6.2	CCCOc1ccc(C(=O)Nc2ccccc2[N+](=O)[O-])cc1
2	-1.1	2.9	7.7	-0.6	-1.9	O=C(COc1ccc(F)cc1)Nc1nccs1
3	-3.0	-9.7	8.8	-4.0	-0.4	COc1cccc(C(=O)Nc2ccc(C)cc2)c1
4	-0.8	-0.3	0.4	-0.5	-4.6	Cn1c(SCC(=O)NCc2ccccc2)ncc(C(=O)Nc2ccccc2)c1=O
5	3.3	0.9	1.4	-0.1	-2.6	O=[N+]([O-])c1cccnc1NCCc1c[nH]c2ccccc12
6	-0.9	-14.3	56.2	-1.2	-3.3	Cc1ccn2cc(-c3cccc([N+](=O)[O-])c3)nc2c1
7	-4.6	7.8	18.5	1.9	-3.4	COc1ccc(C(=O)Nc2ccc3ccccc3c2)cc1OC
8	1.5	-1.8	15.3	-1.9	-3.6	O=C(Nc1cccc(Cl)c1)c1cc(-c2ccco2)on1
9	10.2	1.0	-10.8	2.2	1.9	Cc1ccc(OC(=O)COc2ccccc2)c(-n2nc3ccccc3n2)c1
10	-0.5	6.3	12.6	0.0	-5.5	Cc1cc(C(=O)COC(=O)c2ccco2)c(C)n1Cc1ccco1
11	2.6	-33.8	59.5*	0.8	-0.1	COc1ccc(-c2cc3ccccc3cn2)cc1
12	-10.7	1.8	57.1	0.0	2.0	COc1cc(OC)cc(-c2cc3ccc(F)cc3cn2)c1
13	-2.3	0.2	-4.7	5.0	-3.0	COc1ccc(C)cc1NC(=O)COC(=O)c1c(C)nn(-c2ccccc2)c1C
14	5.5	-34.0	68.6*	0.2	-0.8	COc1ccc(-c2cc3ccc(F)cc3cn2)cc1
15	0.6	10.5*	12.2	-1.7	2.0	COc1ccc(NC(=O)c2cccc(F)c2)cc1Cl
16	10.4	2.2	0.2	-0.9	1.8	COc1ccc(-c2ccc(NC(=O)c3ccc(Br)o3)cc2)nn1
17	1.3	9.8	44.2	-0.1	5.4	O=C(Nc1ccc2ccccc2c1)c1ccc(Br)o1
18	-7.1	-2.5	-7.3	-0.1	3.4	COc1ccccc1C(=O)Nc1nc2cc3c(cc2s1)OCCO3
19	5.8	0.3	8.6	-0.1	5.4	CC(C)(C)c1ccc(-c2nc3cc(N)ccc3o2)cc1
20	2.1	-1.7	-14.4	7.1	-6.3	COC(=O)c1sccc1NC(=O)Nc1cccc(Cl)c1Cl
21	-0.7	-7.7	5.7	-0.1	-6.2	CCCCOC(=O)c1ccc(NC(=O)c2ocnc2C)cc1
22	-1.9	5.4	5.1	0.1	-2.6	COc1ccccc1NC(=O)Nc1ccc2c(c1)OCCO2
23	0.7	1.4	3.1	-0.3	7.9	COC(=O)c1sccc1NC(=O)COc1ccccc1Cl
24	-4.0	8.8	11.8	0.7	3.9	O=C(Nc1ccc(-c2cn3c(n2)SCC3)cc1)c1ccc2c(c1)OCO2
25	5.7	-2.9	-2.7	-1.6	-6.4	O=C(CCc1ccccc1)Nc1ccccc1F
26	11.3	-0.6	-12.2	0.2	8.0	Fc1ccc2cnc(-c3ccccc3F)cc2c1
27	-2.5	1.8	10.5	-2.2	3.7	Fc1ccccc1-c1cc2ccccc2cn1
28	4.8	-0.9	9.8	1.8	-0.1	COc1ccccc1-c1nc(-c2cccc(C)c2)no1
29	-0.4	4.9	0.3	0.7	1.0	O=C(NC(=S)Nc1ccccn1)c1ccccc1
30	-7.2	20.3*	5.4	12.1	-7.1	COc1ccc(NC(=O)Nc2ccccc2F)cc1Cl

item	ATG4B inhibitor	NR3A LBD binder	PfGluPho inh	MPTP block	HKDC1 inhibitor	molecule
31	7.8	26.8*	11.1	-0.9	8.7	COc1cc(/C=C/c2nc3ccccc3c(=O)[nH]2)cc(Cl)c1O
32	-4.9	0.5	-22.9	-1.9	-3.7	Cc1ccnc(N(C(=O)c2cccs2)C(=O)c2cccs2)c1
33	-8.6	0.9	-1.0	11.4	-14.2	COc1ccc(C)cc1NC(=O)Nc1cccc(C)c1
34	-4.8	0.7	-7.3	-1.7	0.2	COc1cccc(C(=O)Nc2ccc(C(=O)O)cc2)c1
35	4.2	-0.8	-13.3	-1.7	13.8	Cc1occc1C(=O)Nc1nnc(C2CCCCC2)s1
36	-5.1	1.5	-2.8	1.8	-5.5	COc1ccc(-c2noc(-c3ccoc3C)n2)cc1
37	3.3	0.5	1.1	-0.5	-5.6	O=C(Nc1ccccc1F)C(=O)Nc1cccc2ccccc12
38	5.6	25.9*	2.2	0.1	3.3	O=C(N/N=C/c1ccc(OC(=O)c2ccccc2)c([N+](=O)[O-])c1)c1ccc(O)cc1
39	-9.9	-2.7	0.1	-1.1	-11.4	O=C(CSc1ccc(-c2ccc(F)cc2)nn1)N1CCCCC1
40	-18.7	-10.5	26.9	0.4	18.5	COc1ccc(-c2nc(-c3ccccc3)no2)c(OC)c1
41	2.7	0.8	-0.5	-1.5	-0.8	Cn1c(SCC(=O)c2ccccc2)ncc(C(=O)Nc2ccccc2)c1=O
42	11.5	4.6	25.3	9.1	12.9	CCOC(=O)c1ccccc1N/C=C/C(=O)c1cccs1
43	-1.9	2.3	9.7	-1.3	9.6	Cc1csc(NC(=O)Nc2ccccc2[N+](=O)[O-])n1
44	1.6	5.6	8.1	2.0	-3.2	N/C(=N\OC(=O)c1cccs1)c1cccc(Br)c1
45	0.1	-0.4	4.8	1.8	-1.2	CCOc1ccc(OCCN2C(=O)c3ccccc3C2=O)cc1
46	5.6	-1.3	15.7	4.0	-12.8	O=C(COc1ccccc1)Nc1ccccc1N1CCN(c2ccccc2)CC1
47	-42.4	-1.2	0.6	-2.7	-2.8	O=C(COC(=O)c1cccnc1Cl)c1ccc2c(c1)OCCO2
48	2.1	-1.5	13.9	0.8	0.4	Cc1cccc(C(=O)OCC(=O)c2ccc3c(c2)OCCO3)c1O
49	3.8	-1.4	6.7	2.9	1.9	COc1ccc(NC(=O)c2ccc([N+](=O)[O-])o2)cc1
50	-1.6	3.8	16.1	-1.5	-7.5	O=C(Nc1ccc(NC(=O)c2cccs2)cc1Cl)c1ccco1
51	-0.1	2.8	0.3	-0.5	-6.0	CC(=O)NCCc1ccc(C(=O)COC(=O)C2CCCCC2)cc1
52	-7.0	30.4*	31.3	-0.1	5.4	COc1ccc2cc(-c3ccsc3)ncc2c1
53	-4.0	0.2	-0.6	-1.2	-4.4	COC(=O)c1sccc1NC(=O)Nc1cccc(C(C)=O)c1
54	-5.9	-1.6	-4.5	0.7	-3.5	CCn1nc(C)c(/C=N/NC(=O)c2ccoc2C)c1C
55	-1.5	23.0*	23.5	80.6*	-6.0	COc1ccccc1NC(=O)Nc1ccc(F)c(F)c1
56	-7.0	30.1*	-12.7	4.1	-12.9	O=C(Nc1ccc(-c2nc3ccccc3s2)cc1)C1=COCCO1
57	-7.6	10.9*	8.0	2.1	10.3	Cc1nc(-c2ccc(C(=O)Nc3ccc(F)cc3)cc2)cs1
58	-15.8	21.0*	-15.9	0.7	-1.4	CC(=O)Nc1ccc(/C=C/c2nc(-c3ccccc3O)n[nH]2)cc1
59	-16.0	1.1	25.5	0.5	2.5	CN=C1S/C(=C\c2ccc(O)c(OC)c2)C(=O)N1C
60	1.9	3.0	7.6	0.4	-2.0	Cc1ccc(OC(=O)COc2ccccc2C)c(-n2nc3ccccc3n2)c1

item	ATG4B inhibitor	NR3A LBD binder	PfGluPho inh	MPTP block	HKDC1 inhibitor	molecule
61	-7.7	0.3	13.6	0.6	1.4	Cc1cc(C)cc(NC(=O)C(=O)NCC2CCCN2S(=O)(=O)c2cccs2)c1 (configuration not stated)
62	-1.9	-22.9	1.6	1.9	2.1	COc1ccc(NC(=O)Nc2cc(C)ccc2OC)cc1
63	0.1	5.6	3.0	1.9	-0.9	O=C(OCc1ccccn1)c1ccc(COc2ccccc2Cl)o1
64	-24.8	x	11.2	-0.3	6.2	COc1ccc(-c2noc(-c3ccccc3Cl)n2)cc1OC
65	-3.3	0.0	-5.1	-2.0	4.0	COc1nccnc1NS(=O)(=O)c1ccc(NC(=S)NC(=O)c2ccc(F)c(F)c2)cc1
66	1.8	-1.2	18.1	0.8	-1.9	Cc1ccc(OC(F)F)c(NC(=O)Nc2ccc3c(c2)OCO3)c1
67	8.0	0.8	8.2	17.5	-5.5	O=C(CCC1CCCCC1)Nc1ccccc1O
68	-16.8	7.2	8.2	0.9	-9.5	O=C(Nc1ccccc1F)Nc1ccccc1Br
69	-2.1	29.2*	6.6	15.7	-0.9	O=C(Nc1ccccc1)Nc1ccc(Nc2ccccc2)cc1
70	-11.3	x	12.1	-0.7	14.9	COc1ccccc1NC(=O)C(=O)Nc1ccccn1
71	8.5	-0.5	-19.9	0.4	-3.6	Cc1ccc(O)c(-n2nc3ccccc3n2)c1
72	6.5	-1.8	0.6	1.1	0.2	O=C(COc1ccccc1)Nc1ccccc1F
73	1.9	22.2*	1.9	-1.4	-6.3	O=C(Nc1ccc(NC(=O)c2ccccc2F)cc1)c1cccs1
74	4.1	-15.2	17.4	1.3	-1.9	CCCOc1ccc(-c2cn3ccccc3n2)cc1
75	-4.3	1.3	-8.9	0.7	2.3	COc1cccc(NC(=O)CSc2nc3ccccc3c(=O)n2CCCC(=O)NCC2CCCO2)c1 (configuration not stated)
76	0.1	0.5	21.7	0.3	0.1	Fc1ccc2cc(-c3ccccc3)ncc2c1
77	4.6	-7.8	22.8	0.2	-2.6	O=C(Nc1nc2ccc(F)cc2s1)C1=COCCO1
78	3.7	3.1	7.6	-1.2	-10.4	Cc1ccc(NC(=O)C(=O)Nc2ccccn2)cc1
79	-5.2	1.4	-3.4	-0.4	-4.7	CCN1C(=O)c2ccc(C(=O)Nc3cccc(C(=O)O)c3)cc2C1=O
80	15.6	0.0	15.9	0.5	0.8	C1=C(c2cc3ccccc3cn2)CCCC1
81	-5.7	-1.3	8.8	0.8	-1.7	O=C(N/N=C/c1cc2c(cc1Br)OCO2)c1ccccn1
82	0.3	-4.1	4.7	-0.5	-0.4	COC(=O)c1ccc(/C=N/NC(=O)c2cccc(F)c2)cc1
83	-5.2	0.5	-9.1	0.1	-1.7	COc1ccc(NC(=O)c2cnc(SCC(=O)NCCc3ccccc3)n(C)c2=O)cc1
84	-1.4	0.8	-2.8	4.3	-1.9	Cc1ccc(OC(=O)c2cccc(S(=O)(=O)N3CCCC3)c2)c(-n2nc3ccccc3n2)c1
85	3.6	1.6	14.6	0.6	0.4	COc1ccc(-c2noc(-c3ccccc3F)n2)cc1
86	1.2	1.3	10.0	-1.9	-3.7	CCc1ccc(OCC(=O)N2CCc3ccccc32)cc1

# Compounds 63 through 81, reprinted for reference:
item	ATG4B inhibitor	NR3A LBD binder	PfGluPho inh	MPTP block	HKDC1 inhibitor	molecule
63	0.1	5.6	3.0	1.9	-0.9	O=C(OCc1ccccn1)c1ccc(COc2ccccc2Cl)o1
64	-24.8	x	11.2	-0.3	6.2	COc1ccc(-c2noc(-c3ccccc3Cl)n2)cc1OC
65	-3.3	0.0	-5.1	-2.0	4.0	COc1nccnc1NS(=O)(=O)c1ccc(NC(=S)NC(=O)c2ccc(F)c(F)c2)cc1
66	1.8	-1.2	18.1	0.8	-1.9	Cc1ccc(OC(F)F)c(NC(=O)Nc2ccc3c(c2)OCO3)c1
67	8.0	0.8	8.2	17.5	-5.5	O=C(CCC1CCCCC1)Nc1ccccc1O
68	-16.8	7.2	8.2	0.9	-9.5	O=C(Nc1ccccc1F)Nc1ccccc1Br
69	-2.1	29.2*	6.6	15.7	-0.9	O=C(Nc1ccccc1)Nc1ccc(Nc2ccccc2)cc1
70	-11.3	x	12.1	-0.7	14.9	COc1ccccc1NC(=O)C(=O)Nc1ccccn1
71	8.5	-0.5	-19.9	0.4	-3.6	Cc1ccc(O)c(-n2nc3ccccc3n2)c1
72	6.5	-1.8	0.6	1.1	0.2	O=C(COc1ccccc1)Nc1ccccc1F
73	1.9	22.2*	1.9	-1.4	-6.3	O=C(Nc1ccc(NC(=O)c2ccccc2F)cc1)c1cccs1
74	4.1	-15.2	17.4	1.3	-1.9	CCCOc1ccc(-c2cn3ccccc3n2)cc1
75	-4.3	1.3	-8.9	0.7	2.3	COc1cccc(NC(=O)CSc2nc3ccccc3c(=O)n2CCCC(=O)NCC2CCCO2)c1 (configuration not stated)
76	0.1	0.5	21.7	0.3	0.1	Fc1ccc2cc(-c3ccccc3)ncc2c1
77	4.6	-7.8	22.8	0.2	-2.6	O=C(Nc1nc2ccc(F)cc2s1)C1=COCCO1
78	3.7	3.1	7.6	-1.2	-10.4	Cc1ccc(NC(=O)C(=O)Nc2ccccn2)cc1
79	-5.2	1.4	-3.4	-0.4	-4.7	CCN1C(=O)c2ccc(C(=O)Nc3cccc(C(=O)O)c3)cc2C1=O
80	15.6	0.0	15.9	0.5	0.8	C1=C(c2cc3ccccc3cn2)CCCC1
81	-5.7	-1.3	8.8	0.8	-1.7	O=C(N/N=C/c1cc2c(cc1Br)OCO2)c1ccccn1

# Bioassay records as filed in PubChem.
